Source: PubChem (several laboratories)
HSP90 refold inh: HSP90 inhibitors, primary screen, cell lysate, luminescence. Rabbit reticulocyte lysate, luciferase refolding luminescence, 3 h. inhibition, % at 5.6 µM. hit rate 0.91% among 290,000. AID 1789, 2009;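 active means inhibition above the screen-wide mean plus 3 SD, computed separately per campaign, cut at about 16% in these data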;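 further: 0% = DMSO wells and 100% = 60 µM geldanamycin wells; inhibitors lower the luminescence because luciferase stays unfolded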
Platelet DG rel: inhibitors of platelet dense granule secretion, primary screen, cell-based, MLPCN, human platelets; human platelet-rich plasma, SFLLRN dense granule ATP release, luminescence; inhibition, %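 (compounds screened at 7.5 µM in platelet-rich plasma)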; hit rate 0.22% among 300,000; AID 1663, 2009;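 active means mean replicate score, as percent of positive control, at or above 50; inconclusive means mean below 50 but at least one replicate at or above 50; inactive means mean and every replicate below 50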
KLF5 inhibitor: KLF5 expression inhibitors, primary screen, DLD-1 cells, luminescence; inhibition, % at 5 µM; AID 1700, 2009; hit rate 0.23% among 290,000; DLD-1 KLF5 promoter-luciferase reporter;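 active means inhibition above a per-plate limit of that plate's mean compound inhibition plus 3 SD, cut at about 60% in these data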;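 further: 0% = DMSO wells and 100% = LY294002 at 200 µM; higher means less KLF5 promoter-driven luciferase light; inactives centre near -14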
aSyn 5UTR inh: MLPCN primary screen, SNCA 5' untranslated region; inhibition, % (tested at 7.5 µM); hit rate 0.82% among 300,000; alpha-synuclein 5'UTR reporter, inhibitor activity; in the data active means inhibition above about 60%; inconclusive means no clear call, values can overlap the other calls;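 further: H4 neuroglioblastoma cells stably carrying SNCA 5'UTR luciferase fusion; 0% = DMSO wells and 100% = positive control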
HSF-1 act: HSF-1 activators, primary screen, NIH3T3-HGL cells, MG132 stress, luminescence, single point. NIH3T3-HGL HSF-1 luciferase reporter, 8 h; 100% = twice DMSO control signal. activation, % at 9 µM. hit rate 1.7% among 300,000. AID 504408, 2011;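 active means mean replicate activation of at least 50% with a set share of replicates each reaching 50%; inconclusive means only one of those two conditions met; inactive means mean below 50% and too few replicates reaching it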;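 further: 0% = median of the neutral control wells and 100% = twice that signal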
AI-2 QS mod: Vibrio harveyi AI-2 quorum sensing modulators, primary screen, JMH597 strain, luminescence/OD600 ratio. Vibrio harveyi JMH597 AI-2 luminescence/OD600 ratio, 9 h; active compounds read low; strain lacks LuxN and CqsS sensors; 0 = neutral-control median. AID 2094, 2009. activity change, % at 7.5 µM. hit rate 0.4% among 300,000; in the data active means activity change below about -75%, passing the limit was not always enough; inconclusive means no clear call, values can overlap the other calls;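 further: luminescence divided by OD600 gain over 9 h not by final OD600 alone; inactives centre near 13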
HSF1 inhib: HSF1 inhibitors in luciferase reporter cells, primary screen, cell-based, NIH3T3, luminescence. NIH3T3-HGL HSE-luciferase, MG132-induced, luminescence 8 h; active compounds read low. activity change, negative = inhibition, % at 7.5 µM (by protocol). AID 2098, 2009. hit rate 0.77% among 300,000;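 active means more than half of replicate wells show activity change below -50%, luminescence cut by over half; inconclusive means some wells, but at most half, below -50%; inactive means no replicate well below -50%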;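 further: luciferase reports HSF-1 transcriptional activity via heat shock element; 0% = median of DMSO wells and -100% = zero luminescence signal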
IEC-6 cytotox: cytotoxicity in IEC-6 intestinal epithelial cells, primary screen, cytotoxicity control for KLF5 inhibitor project, cell-based, luminescence; IEC-6 cytotoxicity, luminescence viability; inhibition, % at 5 µM; hit rate 0.78% among 290,000; AID 1825, 2009; in the data active means inhibition above about 22%;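 further: 0% = plate median of test compound wells and 100% = cytotoxic reference compound wells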
HDAC3 inh: HDAC3 deacetylase inhibitors, primary screen, biochemical, fluorescence, cell-free homogeneous; Histone deacetylase 3 (Homo sapiens), O15379; recombinant HDAC3, fluorogenic peptide/trypsin coupled; inhibition, % at 8.3 µM; hit rate 0.15% among 320,000; in the data active means inhibition above about 26%, passing the limit was not always enough; inconclusive means no clear call, values can overlap the other calls
Target sequence (O15379 whole entry, looked up): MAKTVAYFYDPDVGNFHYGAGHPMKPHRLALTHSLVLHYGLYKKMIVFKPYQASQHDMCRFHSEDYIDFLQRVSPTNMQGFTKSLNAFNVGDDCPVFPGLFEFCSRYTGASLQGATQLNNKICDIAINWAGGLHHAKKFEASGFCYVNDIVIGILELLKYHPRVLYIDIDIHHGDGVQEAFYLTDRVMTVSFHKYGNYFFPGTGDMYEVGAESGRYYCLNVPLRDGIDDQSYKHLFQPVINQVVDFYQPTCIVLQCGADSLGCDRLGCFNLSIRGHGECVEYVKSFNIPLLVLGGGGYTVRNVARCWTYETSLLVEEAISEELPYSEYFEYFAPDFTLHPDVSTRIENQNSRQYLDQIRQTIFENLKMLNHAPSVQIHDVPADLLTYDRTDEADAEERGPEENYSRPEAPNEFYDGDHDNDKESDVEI
* = called active by the depositor; ? = inconclusive; · = no result given; & = joins results of further samples. Not all compounds are listed; count on the stated rates, not on these rows.

SMILES	HSP90 refold inh	Platelet DG rel	KLF5 inhibitor	aSyn 5UTR inh	HSF-1 act	AI-2 QS mod	HSF1 inhib	IEC-6 cytotox	HDAC3 inh
O=C(CSc1nnc(-c2ccccc2)c(-c2ccccc2)n1)N1CCOCC1	10	0	-16	13	5	24	-4	4	4
Cn1c(N2CCN(c3ccccn3)CC2)nc2c1c(=O)n(Cc1ccccc1Cl)c(=O)n2C	1	-29	-36	4	-11	24	0	0	-4
COc1cc(C2Nc3cccc4cccc(c34)N2)cc(OC)c1OC(C)=O	1	-1	-6	11	19	26	2	-2	-4
CCOc1ccc(C2=Nn3c(nnc3-c3ccccn3)SC2)cc1	0	-3	-19	19	-10	4	-4	6	4
N#C/C(C(=O)NCc1ccccc1)=C1\SC(CCO)C(=O)N1c1ccccc1 (centres undefined)	-2	3	-22	9	-1	2	-14	-1	-1
C=CCn1c(SCC(=O)OC)nc2sc3c(c2c1=O)CCN(C)C3	4	4	-10	-5	-12	28	-4	4	-2
Cc1nc(/N=C(\N)Nc2ccccc2)nc2ccccc12	-4	-6	0	-133	22	3	17	7	·
NS(=O)(=O)c1cc2c(cc1Cl)NC(C1CC3C=CC1C3)NS2(=O)=O (centres undefined)	·	·	·	·	·	·	·	·	-4
COCc1cc(C)nc(SCC(=O)Nc2ccc(C)c(C)c2)c1C#N	-2	0	20	-136	31	6	11	-2	-3
Cn1c(OCc2cccnc2)nc2c1c(=O)n(Cc1ccc(Br)cc1)c(=O)n2C	4	7	15	43	-6	7	-2	10	15
COc1cccc(-c2nc(N3CCCCC3C)c3ccccc3n2)c1O (centres undefined)	2	-4	-37	10	-1	4	-9	11	12
NC(=O)c1ccccc1OCCOCCOCCOc1ccccc1C(N)=O	0	-6	-28	4	-18	19	-15	0	2
Cn1c(=O)n(C)c2cc(C(=O)c3ccccc3)ccc21	-1	-4	4	-10	24	20	2	-8	?
Nc1ccc(S(=O)(=O)Nc2cnc3ccccc3n2)cc1	0	48	-18	17	-6	-27	2	-5	6&2
COC(=O)C1=C(C)OC(N)=C(C#N)C1c1ccc(OC)c(OC)c1OC (centres undefined)	-3	0	12	15	10	13	-10	-11	0
CC(=O)C1=C(O)C(=O)N(c2ccc(Br)cn2)C1c1ccccc1F (centres undefined)	1	-2	-132	-52	24	21	12	6	4
COc1ccc(C2C(C#N)=C(N)SC(N)=C2C#N)cc1OC	-3	1	-14	14	21	25	-5	-3	16
Cc1nc(NS(=O)(=O)c2ccccc2)sc1NC(=O)OCCN(C)C	3	-1	-15	-15	-2	17	-4	4	4
O=C1c2ccccc2C(=O)C1c1ccccc1	2	-4	-3	2	-13	12	3	-2	·
Cc1cccc(COc2ccc(/C(O)=C3\C(=O)C(=O)N(CCN(C)C)C3c3ccncc3)cc2)c1 (centres undefined)	-3	-6	-26	-1	0	14	3	-4	1
COc1ccc(C(=O)NCC(=O)n2nc(C)cc2C)cc1OC	1	1	-19	11	-1	10	-6	1	5
NC(=O)CSc1c[nH]c2ccccc12	-1	-5	-13	-10	·	22	·	-4	-5
Cc1ccc(C2/C(=C(/O)c3cnn(-c4ccccc4)c3C)C(=O)C(=O)N2CCN2CCOCC2)o1 (centres undefined)	21*	6	-95	-121	-7	15	-8	-5	11
CN(C)CCO[C@@H](c1ccc(Cl)cc1)c1ccccn1	-2	-2	-29	0	-5	12	-4	-5	3
CCOC(=O)c1ccc(NC(=O)CCC(CC)C(=O)O)cc1 (centres undefined)	0	-1	14	8	1	27	5	2	-6

Following part
SMILES	HSP90 refold inh	Platelet DG rel	KLF5 inhibitor	aSyn 5UTR inh	HSF-1 act	AI-2 QS mod	HSF1 inhib	IEC-6 cytotox	HDAC3 inh
COC(=O)c1nn2c(C(F)(F)F)cc(-c3ccc(Br)o3)nc2c1Br	1	0	-12	-28	1	13	-4	-16	2
CC(C(O)c1ccc(O)cc1)N1CCC(Cc2ccccc2)CC1 (centres undefined)	-1&-9	-1&-5	-32&-26	2&18	-8&-6	17&-5	3&-6	-3&-6	2&1
CN(C)CCOC(=O)Cc1ccc(Cl)cc1	-3	1	-32	-5	10	-13	-3	-4	-1
O=C(O)CCC(=O)N1CCC[C@H]1C(=O)O	·	4	·	-14	-2	5	-6	·	-5
CN(CCOC(=O)c1cccc(Br)c1)C(C)(C)C	-3	5	21	0	4	0	-12	-3	-1
CCCOc1cccc(-c2nnc(N)s2)c1	-1	-5	-45	-21	8	10	-3	-4	5
CCc1nc(NCC(C)C)c(C#N)c2c1COC(C)(C)C2	-4	·	-30	38	-12	19	-8	1	3
Cn1nnnc1SCC1=C(C(=O)O)N2C(=O)[C@@H](NC(=O)[C@H](O)c3ccccc3)[C@H]2SC1	-1	1	9	15	22	4	7	-4	5
CCCOc1ccc(C(C)=O)cc1CSCCC#N	0	17	11	2	1	18	-2	0	3
Cc1ccc(S(=O)(=O)/C(C#N)=C/c2c(N3CCN(C)CC3)nc3c(C)cccn3c2=O)cc1	3	-4	-2	25	12	5	-3	-5	·
CCOC(=O)c1ccc(NCC(O)COc2ccccc2)cc1 (centres undefined)	6	3	-22	-5	-8	-16	0	3	2
C=CCSc1nnc2n(-c3ccccc3OC)c(=O)c3c4c(sc3n12)CCC4	2	7	-57	14	9	20	9	-2	5
CCn1c(SCC(=O)N2CCOCC2)nc2sc3c(c2c1=O)CCCC3	2	-50	-9	26	-16	-10	4	2	-1
C=CCn1c(C2CC(=O)N(c3ccc(C)cc3)C2)nc2ccccc21 (centres undefined)	0	2	-8	26	-27	25	-9	-3	-4
Cc1nnc2n(-c3ccccc3)c(=O)c3c4c(sc3n12)COC(C(C)C)C4 (centres undefined)	3	-1	-3	-12	-11	32	7	-1	3
COC(=O)CC1SC(=O)NC1=O (centres undefined)	-2	5	-9	1	-1	14	-3	-1	1
CC(=O)O[C@]1(C(C)=O)CCC2C3C=C(C)C4=CC(=O)CC[C@]4(C)C3CC[C@@]21C (some centres undefined)	-1	0	-16	-23	-6	-1	1	-1	6
O=C(O)c1nn(-c2ccccc2-c2n[nH]c(=O)[nH]c2=O)c(=O)[nH]c1=O	2	-6	-6	9	20	18	-9	0	-2
Cc1cc(C(F)(F)F)nn1CC(=O)NCC1CCCO1 (centres undefined)	4	2	-33	6	-3	23	-4	-2	-3
COc1ccc2c(c1)[nH]c1c(=O)n(CC3CCCO3)cnc12 (centres undefined)	4	-2	-13	-38	21	20	9	-2	0
C/C(CC1(O)C(=O)N(Cc2ccccc2)c2ccccc21)=N\O (centres undefined)	-3	-1	-10	4	-12	-11	-5	-1	-3
CCOC(=O)/C=C1\NC(=O)CS1	-1	12	-41	0	2	-3	-1	-7	0
C[C@]12CCC3c4ccc(OCC(=O)O)cc4CCC3C1CCC2=O (some centres undefined)	1	2	-25	-14	6	33	0	-2	-6
Cn1c(N)c(N=Nc2ccc(S(N)(=O)=O)cc2)c(=O)n(C)c1=O	2	-3	3	14	-1	31	-14	-9	·
Cc1cccc(C)c1NC(=O)C(C)N (centres undefined)	·	-4	·	-17	-15	19	-6	·	-1

Following part.
SMILES	HSP90 refold inh	Platelet DG rel	KLF5 inhibitor	aSyn 5UTR inh	HSF-1 act	AI-2 QS mod	HSF1 inhib	IEC-6 cytotox	HDAC3 inh
O=C1C=C(O)CC(c2ccco2)C1 (centres undefined)	1	-2	-22	11	6	2	1	-4	0
C=CCOc1ccc(/C(O)=C2\C(=O)C(=O)N(CCN(C)C)C2c2cccs2)cc1 (centres undefined)	8	2	-34	-36	0	7	1	6	-3
CC(CCc1ccccc1)NCC(O)c1ccc(O)c(C(N)=O)c1 (centres undefined)	4	7	-7	17	-11	14	-7	2	-9
CCOC(=O)C1=C(C)N=C2SC(C)C(=O)N2C1c1ccc(OC(C)=O)c(OC)c1 (centres undefined)	4	-1	-9	16	34	7	25	-5	8
CCOC(=O)C(C)Oc1ccc2c(C)cc(=O)oc2c1C(C)=O (centres undefined)	9	-2	2	7	-6	19	-8	-1	-4
CCNC(=O)Nn1c(C)nnc1C	5	-25	10	-6	-2	8	-13	4	-2
CCCCOC(=O)c1ccc(O)cc1	1	-2	-44	-22	18	13	0	-7	1
O=C(O)C1CCCCN1S(=O)(=O)c1cccc2nsnc12 (centres undefined)	3	-19	-7	14	-7	15	-5	-7	·
CC(=O)c1c(N)nc2n(c1=O)CCCCC2	3	10	-17	-6	-12	15	-11	-1	-1
COCCn1c(SCc2c(F)cccc2Cl)nc2c1c(=O)[nH]c(=O)n2C	1	-1	-13	31	-7	2	2	-1	-4
CCCCCC1CC(CC#CCN2CCOCC2)C(=O)O1 (centres undefined)	4	-4	-38	-10	9	-11	8	0	-7
Cc1c(NC(=O)C(CC(=O)O)NCc2ccco2)c(=O)n(-c2ccccc2)n1C (centres undefined)	5	4	11	6	-15	17	-3	3	·
c1ccc(-c2nc(NCC3CCCO3)c3ccccc3n2)nc1 (centres undefined)	2	12	-8	-48	8	14	-9	0	-1
C/C=C/c1ccccc1OCc1ccc(C(=O)O)o1	6	5	-32	11	12	16	6	-2	1
COc1cccc(C2=CC(c3ccc(N(C)C)cc3)n3nnnc3N2)c1 (centres undefined)	-1	-3	-21	-76	0	26	-4	-1	-5
C=CCNc1nc(C2(C)CC3(CC(C)(C)OC3=O)C(=O)O2)cs1 (centres undefined)	-4	11	2	1	6	8	-8	-7	-5
CC1CCN(c2oc(-c3ccccc3Cl)nc2C#N)CC1	0	-2	-10	-144	46	-6	31	-1	1
c1cncc(-c2nnc3sc(C4CCCCC4)nn23)c1	5	17	-6	27	0	45	-4	4	-4
CCOC(=O)C1=C(C)NC(=O)NC1c1ccc2c(c1)OCO2 (centres undefined)	1	·	-25	10	4	27	2	2	3
Cc1cc(C)c(C#N)c(OCC(=O)c2ccccc2)n1	3	2	0	-10	15	25	10	3	-2
CCOC(=O)[C@H](CCc1ccccc1)N[C@@H](C)C(=O)N1CCC[C@@H]1C(=O)O	·	·	·	·	·	·	·	·	1
CCOC(=O)c1c(C)n(C)c2ccc(OC)c(NC(=O)c3cccs3)c12	4	2	-14	22	23	14	2	4	-5
Cc1ccc(N2C(=O)c3sc4nnc(C)c(=O)n4c3C2=O)cc1	3	1	0	-29	-10	7	-8	4	6
COc1cccc(C(=O)c2sc(NC(C)C)nc2N)c1	-5	0	-25	1	-21	12	-9	-6	4
Cc1c(N2CCCC2)cc2c(c1NC(=O)c1ccccc1Cl)C(C)(C)CC2(C)C	3	11	-24	-18	-2	9	-2	-4	1
COC(=O)CSC1=C(C#N)C(=O)NC2(CCCCC2)S1	-3	-1	-11	0	4	10	-6	0	15

3 compounds from above, sorted by length of the SMILES, lowest first:
SMILES	HSP90 refold inh	Platelet DG rel	KLF5 inhibitor	aSyn 5UTR inh	HSF-1 act	AI-2 QS mod	HSF1 inhib	IEC-6 cytotox	HDAC3 inh
CCCCOC(=O)c1ccc(O)cc1	1	-2	-44	-22	18	13	0	-7	1
CCOC(=O)C(C)Oc1ccc2c(C)cc(=O)oc2c1C(C)=O (centres undefined)	9	-2	2	7	-6	19	-8	-1	-4
COCCn1c(SCc2c(F)cccc2Cl)nc2c1c(=O)[nH]c(=O)n2C	1	-1	-13	31	-7	2	2	-1	-4
